Screening data as filed in PubChem BioAssay.
Vaccinia stage: Vaccinia orthopox stage-specific inhibition | Vaccinia-infected cells, mCherry/Venus stage reporter fluorescence; active compounds read low; some inactives read as strong as hits | activity change (mCherry), % (no concentration beside the values) | actives 0.01% (n = 89,000);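 active = mCherry past -33% and 40 or more points under the early reporter, replicates agreeing; inconclusive = past -33% without that gap or agreement; tested in A549 cells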;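 note: scaled between vehicle wells and reference inhibitor wells; 23 nL library stock went into each well; one replicate is shown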
Vaccinia stage Venus: also measured in Vaccinia stage; calls as there; activity change (Venus), %; measured here: Venus reporter, other viral stage;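 negative = less Venus signal; first of two replicates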
An asterisk follows results filed as active; ? = inconclusive; / = no result given; & = joins results of further samples. Some of the compounds tested; the hit share may differ from the screen's.

Every second line gives: Vaccinia stage | Vaccinia stage Venus
- C[C@H]1CN([C@@H](C)CO)C(=O)CCCn2nncc2CO[C@H]1CN(C)S(C)(=O)=O
 : 9&2 | 2&3
- CCCNC(=O)N1C[C@H](C)[C@@H](OC)CN(C)C(=O)c2ccc(NC(=O)C3CCC3)cc2OC[C@@H]1C
 : 14 | 9
- CO[C@@H]1CC[C@H]2CCN(C)C(=O)C[C@H](c3ccccc3)CN(C)C(=O)c3cccc(C#N)c3OC[C@H]1O2
 : 12 | 7
- Cc1ccc(S(=O)(=O)N[C@H]2CC[C@@H](CCNC(=O)C3CCCCC3)O[C@H]2CO)cc1
 : -29 | -17
- COC(=O)C[C@@H]1CC[C@@H](NS(=O)(=O)c2ccccc2F)[C@H](CO)O1
 : 4 | 19
- CC=Cc1ccc2n(c1=O)C[C@H]1[C@H](CO)[C@@H](C(=O)NC3CCCC3)[C@@H]2N1Cc1ccncc1 (mixture of isomers)
 : -2 | 4
- COc1cccc(-c2ccc([C@@H]3[C@H](CO)N4CCCCN(C(=O)c5ccc6c(c5)OCO6)C[C@@H]34)cc2)c1
 : ? | /
- CCC(=O)N(C)C[C@H]1Oc2cc(-c3ccccc3C)ccc2S(=O)(=O)N([C@@H](C)CO)C[C@@H]1C
 : -20 | -14
- O=C(Cc1ccccn1)NCC[C@H]1CC[C@H](NC(=O)Nc2ccc(C(F)(F)F)cc2)[C@H](CO)O1
 : -11 | 5
- CCCN(C)C[C@H]1OCCCC[C@H](C)Oc2ccc(N(C)C)cc2C(=O)N([C@@H](C)CO)C[C@H]1C
 : -24 | -16
- O=S(=O)(Cc1ccccc1)NCC[C@H]1CC[C@H](NS(=O)(=O)c2ccc(F)cc2)[C@@H](CO)O1
 : -6 | -3
- C/C=C/c1cnc2c(c1)C(=O)N([C@@H](C)CO)C[C@@H](C)[C@H](CN(C)Cc1ccccc1)O2
 : 12 | 3
- CCC(=O)N1[C@H](CO)[C@@H](c2ccccc2)C12CN(Cc1nccs1)C2
 : -3 | 0
- CNC[C@@H]1OCCCC[C@@H](C)Oc2ccc(NS(=O)(=O)c3ccccc3)cc2C(=O)N([C@H](C)CO)C[C@@H]1C
 : -2 | -1
- COc1ccc(NC(=O)N(C)C[C@@H]2Oc3ccc(NC(=O)Nc4cccc5ccccc45)cc3CC(=O)N([C@@H](C)CO)C[C@H]2C)cc1
 : 22 | 16
- C[C@@H]1CN([C@H](C)CO)C(=O)c2cccc(NC(=O)C3CC3)c2O[C@@H]1CN(C)S(=O)(=O)c1ccc(F)cc1
 : 47 | 10
- Cc1cccc(S(=O)(=O)N2CCCCN3[C@@H](CO)[C@@H](c4ccc(-c5ccncc5)cc4)[C@@H]3C2)c1
 : ? | /
- C[C@@H](NC(=O)C[C@@H]1CC[C@@H]2[C@H](COC[C@H](O)CN2C(=O)Nc2ccccc2)O1)c1ccccc1
 : 11 | -1
- COCC(=O)Nc1ccc2c(c1)C(=O)N(C)[C@@H]1CC[C@H](CC(=O)NCC3CCCCC3)O[C@@H]1CO2
 : -13 | -14
- CC(C)C#Cc1ccc([C@@H]2[C@@H](CO)N3C(=O)CN(C(=O)C4CCCCC4)C[C@@H]23)cc1
 : -3 | -22
- C[C@@H]1CCCCO[C@@H](CN(C)C)[C@H](C)CN([C@@H](C)CO)C(=O)c2cc(NC(=O)Nc3ccc(C(F)(F)F)cc3)ccc2O1
 : ? | /
- COc1ccc(CN(C)C[C@H]2Oc3ccc(NS(=O)(=O)c4cn(C)cn4)cc3CC(=O)N([C@H](C)CO)C[C@@H]2C)cc1
 : 22 | 18
- CCCNC(=O)N(C)C[C@H]1Oc2ncc(C#CCc3ccccc3)cc2C(=O)N([C@@H](C)CO)C[C@H]1C
 : 14 | 21
- C[C@@H]1CN([C@H](C)CO)C(=O)Cc2cc(NC(=O)Cn3cnnn3)ccc2O[C@@H]1CN(C)CC1CCCCC1
 : 5 | -3
- C[C@H](O)C#Cc1cnc2c(c1)C(=O)N([C@H](C)CO)C[C@H](C)[C@@H](CN(C)C(=O)Cc1ccccn1)O2
 : 3 | -3
- Cc1nn(C)cc1NC(=O)C[C@H]1CC[C@@H]2[C@H](COc3ccc(NC(=O)c4cccc(F)c4)cc3C(=O)N2C)O1
 : 6 | 16
- O=S(=O)(c1ccccc1)N1CC[C@@H]2[C@H](CO)Nc3ccc(C#CC4CCCCC4)cc3[C@@H]21
 : 5 | 17
- C[C@H](CO)N1C[C@H](C)[C@H](CN(C)S(C)(=O)=O)Oc2ncc(C#Cc3ccccc3)cc2C1=O
 : 27 | 2
- CNC[C@H]1OCCCC[C@@H](C)Oc2ccc(NS(=O)(=O)c3ccc(C)cc3)cc2C(=O)N([C@@H](C)CO)C[C@H]1C
 : 1 | 5
- O=C(C[C@@H]1CC[C@@H](NS(=O)(=O)c2ccccc2)[C@H](CO)O1)NCCN1CCCCC1
 : 12 | 8

Laid out differently: four of the compounds above.
molecule: COCC(=O)Nc1ccc2c(c1)C(=O)N(C)[C@@H]1CC[C@H](CC(=O)NCC3CCCCC3)O[C@@H]1CO2
  Vaccinia stage: -13
  Vaccinia stage Venus: -14
molecule: CC(C)C#Cc1ccc([C@@H]2[C@@H](CO)N3C(=O)CN(C(=O)C4CCCCC4)C[C@@H]23)cc1
  Vaccinia stage: -3
  Vaccinia stage Venus: -22
molecule: C[C@@H]1CCCCO[C@@H](CN(C)C)[C@H](C)CN([C@@H](C)CO)C(=O)c2cc(NC(=O)Nc3ccc(C(F)(F)F)cc3)ccc2O1
  Vaccinia stage: ?
  Vaccinia stage Venus: /
molecule: COc1ccc(CN(C)C[C@H]2Oc3ccc(NS(=O)(=O)c4cn(C)cn4)cc3CC(=O)N([C@H](C)CO)C[C@@H]2C)cc1
  Vaccinia stage: 22
  Vaccinia stage Venus: 18

Following part:
Every second line gives: Vaccinia stage | Vaccinia stage Venus
- CCCC(=O)Nc1ccc2c(c1)OC[C@H](C)N(Cc1cccc(F)c1)C[C@@H](C)[C@H](OC)CN(C)C2=O
 : -13 | -16
- C[C@@H]1CCCCO[C@H](CN(C)Cc2ccccc2)[C@@H](C)CN([C@@H](C)CO)C(=O)c2cc(NS(=O)(=O)c3cccs3)ccc2O1
 : ? | /
- CCCC(=O)N1CC2(C1)CN(C(C)=O)[C@@H](CO)c1c2c2ccc(OC)cc2n1C
 : 19 | 22
- C[C@@H]1CN([C@H](C)CO)C(=O)Cc2cc(NS(=O)(=O)c3ccc(Cl)cc3)ccc2O[C@@H]1CN(C)Cc1ccc(Oc2ccccc2)cc1
 : -15 | -18
- Cc1ccccc1S(=O)(=O)N(C)C[C@H]1OCc2cn(nn2)CCCC(=O)N([C@H](C)CO)C[C@@H]1C
 : 2 | 4
- C[C@@H]1CN([C@H](C)CO)S(=O)(=O)c2ccc(C3=CCCCC3)cc2O[C@@H]1CN(C)Cc1ccncc1
 : ? | /
- C[C@@H]1CCCCO[C@@H](CN(C)C(=O)CCCN(C)C)[C@H](C)CN([C@@H](C)CO)C(=O)c2cc(NC(=O)CCCN(C)C)ccc2O1
 : 34 | 6
- O=C(C[C@@H]1CC[C@H]2[C@@H](COC[C@@H](O)CN2S(=O)(=O)c2ccc(F)cc2)O1)NCC1CCCCC1
 : -6 | -4
- Cc1ccc(S(=O)(=O)Nc2ccc3c(c2)C(=O)N([C@H](C)CO)C[C@H](C)[C@H](CN(C)C(=O)Nc2ccc4c(c2)OCO4)OCCCC[C@H](C)O3)cc1
 : -22 | -16
- C[C@@H]1CN([C@H](C)CO)C(=O)c2cc(N(C)C)ccc2O[C@@H](C)CCCCO[C@@H]1CN(C)S(=O)(=O)c1cn(C)cn1
 : 9 | 5
- CC(C)CC#Cc1cnc2c(c1)C(=O)N([C@H](C)CO)C[C@@H](C)[C@H](CN(C)C(=O)Cc1ccncc1)O2
 : -6 | -9
- CCCNC(=O)N1[C@H](C#N)[C@@H](c2ccc(-c3cccc(OC)c3)cc2)[C@H]1CO
 : -4 | -1
- Cc1noc(C)c1NC(=O)Nc1ccc2c(c1)C(=O)N([C@@H](C)CO)C[C@@H](C)[C@H](CN(C)C(=O)NC(C)C)OCCCC[C@@H](C)O2
 : 26 | 14
- O=S(=O)(c1cccs1)N1CCCCN2[C@H](CO)[C@H](c3ccc(C4=CCCC4)cc3)[C@H]2C1
 : -3 | -9
- COCC(=O)N1CC[C@@H]2[C@H](CO)Nc3ccc(-c4ccc(C(=O)N(C)C)cc4)cc3[C@@H]21
 : 10 | 15

The final two records of the part before come first, to join the parts.
Every second line gives: Vaccinia stage | Vaccinia stage Venus
- O=S(=O)(c1cccs1)N1CCCCN2[C@H](CO)[C@H](c3ccc(C4=CCCC4)cc3)[C@H]2C1
 : -3 | -9
- COCC(=O)N1CC[C@@H]2[C@H](CO)Nc3ccc(-c4ccc(C(=O)N(C)C)cc4)cc3[C@@H]21
 : 10 | 15
- C[C@@H]1CN([C@H](C)CO)C(=O)c2cc(/C=C/c3ccccc3)cnc2O[C@@H]1CN(C)C(=O)c1ccccc1
 : 6 | -11
- CC(C)NC(=O)N(C)C[C@H]1Oc2ccc(NC(=O)Nc3ccc(F)cc3)cc2CC(=O)N([C@H](C)CO)C[C@H]1C
 : 4 | -3
- COc1ccc(NC(=O)N(C)C[C@@H]2Oc3c(NC(=O)c4nc5ccccc5s4)cccc3C(=O)N([C@@H](C)CO)C[C@H]2C)cc1
 : 14 | 8
- C[C@H]1CN([C@@H](C)CO)C(=O)c2cccc(NS(=O)(=O)c3cn(C)cn3)c2O[C@H]1CN(C)S(=O)(=O)c1cccs1
 : 5 | -4
- Cc1ccc(S(=O)(=O)NCC[C@@H]2CC[C@@H](NC(=O)c3cccnc3)[C@H](CO)O2)cc1
 : 1 | -3
- C[C@H]1CN([C@@H](C)CO)C(=O)Cc2cc(NC(=O)Nc3ccc(C(F)(F)F)cc3)ccc2O[C@@H]1CN(C)C(=O)Nc1ccc2c(c1)OCO2
 : -10 | -7
- CC=Cc1ccc2n(c1=O)C[C@H]1[C@H](CO)[C@@H](C(=O)NCCOC)[C@@H]2N1Cc1ccccc1OC (mixture of isomers)
 : 19 | 0
- CO[C@H]1CN(C)C(=O)c2ccc(NC(=O)C3CCC3)cc2OC[C@H](C)NC[C@@H]1C
 : 12 | 15
- Cc1noc(C)c1NC(=O)N(C)C[C@H]1Oc2ccc(NC(=O)CCCN(C)C)cc2C(=O)N([C@H](C)CO)C[C@H]1C
 : 11 | 9
- Cc1ccc(S(=O)(=O)NC2CCN(Cc3ccc(OCCO)cc3)CC2)cc1
 : -13 | -4
- COc1ccc(-c2ccc3c(c2)O[C@@H](CN(C)C(=O)c2ccccc2F)[C@@H](C)CN([C@@H](C)CO)S3(=O)=O)cc1
 : ? | /
- C[C@@H]1CN([C@@H](C)CO)C(=O)c2cccc(NC(=O)Nc3ccc4c(c3)OCO4)c2O[C@@H]1CN(C)S(=O)(=O)c1cn(C)cn1
 : 10 | 14
- O=C(Cc1ccccc1)N1CCCCN2[C@H](CO)[C@H](c3ccc(C#CC4(O)CCCC4)cc3)[C@H]2C1
 : ? | /
- O=C(NC1CCCC1)N[C@H]1CC[C@H](CC(=O)N2CCOCC2)O[C@@H]1CO
 : -3 | -1
- COCC(=O)Nc1ccc2c(c1)[C@H]1C[C@@H](CC(=O)N3CCc4ccccc4C3)O[C@@H](CO)[C@H]1O2
 : 5 | 3
- O=C(NC1CCCC1)N[C@H]1CC[C@@H](CC(=O)N2CCOCC2)O[C@@H]1CO
 : -7 | 0
- C[C@H](CO)N1C[C@H](C)[C@H](CN(C)S(=O)(=O)c2cn(C)cn2)Oc2ccc(NC(=O)CCCCCC(=O)Nc3ccccc3N)cc2CC1=O
 : 8 | 0
- C[C@H](CO)N1C[C@H](C)[C@H](CN(C)C(=O)c2ccncc2)Oc2ncc(-c3ccncc3)cc2C1=O
 : 36 | 17
- COc1ccc(S(=O)(=O)Nc2ccc3c(c2)CC(=O)N([C@H](C)CO)C[C@@H](C)[C@@H](CN(C)Cc2ccc4c(c2)OCO4)O3)cc1
 : -5 | -4
- C/C=C/c1ccc([C@H]2[C@H](CO)N(S(=O)(=O)Cc3ccccc3)C23CN(C(=O)C2CCCC2)C3)cc1
 : -30 | -20
- O=C(C[C@H]1CC[C@H]2[C@@H](COC[C@H](O)CN2S(=O)(=O)c2ccc(F)cc2)O1)N[C@H]1CCN(Cc2ccccc2)C1
 : -4 | 17
- C[C@H](CO)N1C[C@H](C)[C@@H](CN(C)S(=O)(=O)c2ccc(Cl)cc2)Oc2ccc(NS(=O)(=O)c3cn(C)cn3)cc2CC1=O
 : -8 | -5
- CNC[C@H]1Oc2ccc(NC(=O)Nc3cccc4ccccc34)cc2CC(=O)N([C@@H](C)CO)C[C@@H]1C
 : 12 | 9
- COc1ccc(NC(=O)N2C[C@H](O)COC[C@@H]3O[C@H](CC(=O)NCc4ccccc4OC)CC[C@H]32)cc1
 : 13 | 4
- O=C(C1CCCCC1)N1CC2(C1)[C@H](c1ccccc1)[C@H](CO)N2C(=O)NC1CCCC1
 : -13 | -3
- COc1ccc(NC(=O)N(C)C[C@H]2Oc3ccc(NC(=O)NC4CCCCC4)cc3C(=O)N([C@H](C)CO)C[C@@H]2C)cc1
 : 12 | 9
- CS(=O)(=O)Nc1ccc2c(c1)[C@@H]1C[C@H](CC(=O)O)O[C@@H](CO)[C@@H]1O2
 : -6 | -7
- C[C@H](CO)N1C[C@H](C)[C@H](CN(C)Cc2ccncc2)Oc2ncc(C#CCC3CCCCC3)cc2C1=O
 : ? | /
- Cc1ccc(S(=O)(=O)N(C)C[C@H]2OCCCC[C@@H](C)Oc3ccc(N(C)C)cc3C(=O)N([C@@H](C)CO)C[C@@H]2C)cc1
 : -33 | -17
- CC=Cc1ccc2n(c1=O)C[C@H]1[C@H](CO)[C@@H](C(=O)N3CCOCC3)N(Cc3ccccc3)[C@@H]21 (mixture of isomers)
 : 23 | 9
- C[C@@H](NC(=O)C[C@@H]1CC[C@@H](NC(=O)C2CCC2)[C@@H](CO)O1)c1ccccc1
 : 11 | 13
- COc1ccc(-c2ccccc2[C@H]2[C@@H](C#N)N(C(=O)C3CCCCC3)[C@H]2CO)cc1
 : 3 | 7
